Assay outcomes deposited in PubChem by several laboratories.
HTR5A inv ctr: HTR5A inverse agonists in luminescence cell assay, primary screen, counter-screen for OPRM1-OPRD1 heterodimer inverse agonist project, full-deck HTS; 5-hydroxytryptamine receptor 5A (Homo sapiens), P47898; HTR5A cell line, inverse agonism; inhibition, % at 9.3 µM; actives 0.083% (n = 340,000); AID 504634, 2011; in the data active = inhibition mostly above about 23%, no sharp cut-off; inactive = mostly below about 18%;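 also: 0% = cells with DMSO and 100% = no-cell wells with DMSO; some compounds called inactive have numbers as strong as hits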
Target sequence (P47898 whole entry, looked up): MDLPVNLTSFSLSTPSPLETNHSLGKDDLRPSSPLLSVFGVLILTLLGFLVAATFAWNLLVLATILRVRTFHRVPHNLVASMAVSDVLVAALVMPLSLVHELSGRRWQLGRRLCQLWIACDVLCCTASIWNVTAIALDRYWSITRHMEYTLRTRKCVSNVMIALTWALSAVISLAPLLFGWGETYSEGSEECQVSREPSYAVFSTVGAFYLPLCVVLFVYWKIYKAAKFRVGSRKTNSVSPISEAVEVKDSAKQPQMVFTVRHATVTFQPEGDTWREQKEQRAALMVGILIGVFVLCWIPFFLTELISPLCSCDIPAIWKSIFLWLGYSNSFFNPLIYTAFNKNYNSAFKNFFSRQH
CDK5 inh: inhibitors of human CDK5/p35 kinase, primary screen, biochemical, single concentration | AID 488839, 2010 | Cyclin-dependent kinase 5 (Homo sapiens) + Cyclin-dependent kinase 5 activator 1 (Homo … | inhibition, % at 10 µM | actives 0.01% (n = 330,000) | Recombinant CDK5/p35, ADP-Glo luminescence, 60 min;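 active = highest replicate inhibition of at least 50% and at least 75% of replicates reaching 50%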;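 also: plate controls were DMSO neutral control for no effect and GW8510 at 10 µM for full effect; many of its hits are not listed in these tables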
PKA-R2B act: activators of PKA-R2B holoenzyme, primary screen, biochemical, fluorescence polarization, Cy5-IP20, human | actives 0.079% (n = 340,000) | cAMP-dependent protein kinase catalytic subunit beta (Homo sapiens) + cAMP-dependent … | PKA-R2B holoenzyme dissociation; R2B truncated from residue 108, S112A mutant; 0% DMSO only, 100% 113 µM cGMP | activation, % at 11.4 µM;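 active = activation above a cutoff set at the mean over all compounds plus 3 SD, cut at about 18% in these data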;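 also: higher means more holoenzyme dissociation and a rise in polarization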
Target sequence (P31323 whole entry, looked up, other chains not shown, the tested form may be a part): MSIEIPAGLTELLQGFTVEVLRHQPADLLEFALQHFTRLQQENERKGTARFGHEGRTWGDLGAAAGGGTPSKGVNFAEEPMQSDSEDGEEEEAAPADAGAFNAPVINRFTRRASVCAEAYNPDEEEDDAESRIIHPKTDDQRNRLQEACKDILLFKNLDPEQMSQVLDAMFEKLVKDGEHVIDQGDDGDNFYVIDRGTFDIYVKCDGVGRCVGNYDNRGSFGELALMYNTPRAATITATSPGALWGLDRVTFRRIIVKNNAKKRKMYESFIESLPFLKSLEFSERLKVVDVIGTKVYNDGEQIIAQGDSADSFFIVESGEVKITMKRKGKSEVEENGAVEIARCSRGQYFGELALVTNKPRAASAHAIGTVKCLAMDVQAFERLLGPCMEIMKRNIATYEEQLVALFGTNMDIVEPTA
HTR5A ag: HTR5A agonists in luminescence cell assay, primary screen, counter-screen for OPRM1-OPRD1 heterodimer agonist project, full-deck HTS; cell-based; AID 504692, 2011; 5-hydroxytryptamine receptor 5A (Homo sapiens), P47898; activation, % at 9.3 µM; actives 0.61% (n = 340,000); in the data active = activation mostly above about 9.5%, no sharp cut-off; inactive = mostly below about 7.6%;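 also: 0% = cells with vehicle only and 100% = reference agonist; strong numbers were not always called active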
PKA-R1A act: activators of PKA-R1A holoenzyme, primary screen, biochemical, fluorescence polarization, Cy5-IP20, bovine R1A, mouse PKAc; cAMP-dependent protein kinase type I-alpha regulatory subunit (Bos taurus) + …; PKA-R1A dissociation; scaled: DMSO 0%, 113 µM cGMP 100%; activation, % at 11.4 µM; actives 0.083% (n = 340,000);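 active = percent activation above the mean of all tested compounds plus 3 SD, cut at about 19% in these data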;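 also: higher means more PKAc released from R1A so a rise in polarization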
SUMO Mot1 rescue: yeast Mot1-301 growth rescue at high temperature, primary screen, SUMOylation pathway inhibitor project, S. cerevisiae, ATP luminescence, 38.5C. S. cerevisiae Mot1-301 growth rescue; percent above DMSO median, 100 means doubled. growth rescue, % at 18.8 µM. actives 1% (n = 320,000). AID 2716, 2010;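 active = every valid replicate shows activation above 250% relative to neutral control wells; inactive = the rest, any valid replicate at or below 250%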;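 also: OY570 slx delta 5 strain wells were the positive control but not used for scaling; some compounds called inactive have numbers as strong as hits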
DAGLB inh: DAGLB lipase inhibitors, primary screen, biochemical, fluorescence, HTS; HEK293T DAGLB membrane lysate, EnzChek fluorogenic substrate; inhibition, % at 5.17 µM; actives 0.059% (n = 340,000); AID 504411, 2011; in the data active = inhibition above about 34%;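 also: 0% = enzyme with vehicle and 100% = wells lacking enzyme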
Tat transport: E. coli Tat export inhibitors, primary screen, MC4100, TorA-mCherry reporter, fluorescence, single point. AID 488895, 2010. inhibition, % at 10 µM. actives 0.036% (n = 340,000);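 active = mean replicate inhibition at least 50% and at least half of replicates individually reaching 50%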;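 also: exported cargo escapes ClpAP degradation while cytoplasmic cargo is degraded and loses fluorescence; 0% = median of neutral control wells and 100% = median of NaSCN control wells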
An asterisk follows results filed as active; nt = no result given.

Values run as follows: HTR5A inv ctr	CDK5 inh	PKA-R2B act	HTR5A ag	PKA-R1A act	SUMO Mot1 rescue	DAGLB inh	Tat transport
1	O=C(NCc1cn(-c2ccccc2)nc1-c1ccccc1)c1cccc([N+](=O)[O-])c1
 : 3	-1.0	5	-1	-7	nt	-6	-9
2	Cc1nnnn1-c1cccc(C(=O)O)c1
 : 9	-0.9	14	-4	-12	3	2	-3
3	O=C(/C=C\c1ccco1)Nc1nc(-c2ccccc2)cs1
 : 5	2.3	-9	-2	-14	295	-2	5
4	COc1cccc(CN(C)CC(=O)Nc2cccc(C(F)(F)F)c2)c1OC
 : 5	0.0	-9	-2	-24	-8	-14	-4
5	COc1cc2ccccc2cc1C(=O)Nc1ccc(Cc2ccncc2)cc1
 : -5	-3.5	9	1	0	-26	-4	21
6	COc1cccc(C(=O)Nc2cc3c(cc2N2CCCC2)n(C)c(=O)n3C)c1
 : 16	1.7	-3	4	-1	-7	1	-4
7	COc1cccc(N2CCN(CC(=O)Nc3ccc(-n4cnnn4)cc3)CC2)c1
 : -19	-0.8	-5	6	-15	266	1	1
8	O=C(NCc1ccc2c(c1)OCO2)C(=O)NCC1OCCN1S(=O)(=O)c1ccccc1 (stereo unspecified)
 : -14	0.6	9	0	1	-1	4	5
9	Cn1c(Nn2cnnc2)nc2ccccc21
 : -14	0.9	9	-1	3	-13	-2	10
10	O=c1c2cc(-c3ccccc3)sc2nc2n1N=C(c1cccs1)CS2
 : nt	nt	nt	nt	nt	-6	nt	nt
11	O=C(NC1CCS(=O)(=O)C1)c1c(NC(=O)C2COc3ccccc3O2)sc2c1CCCC2 (stereo unspecified)
 : -41	-1.3	-1	16	-10	-18	-4	-9
12	CCc1ccc(Cn2nnc(C(=O)NCc3ccccc3OC)c2N)cc1
 : -26	1.7	-3	9	0	-18	-1	-10
13	Cc1ccccc1NC(=O)Nc1ccccc1N1CCCCC1
 : -11	1.3	-5	9	-9	4	-2	4
14	Nc1c(SCCC(=O)O)ccc2c1C(=O)c1ccccc1C2=O
 : 9	3.9	3	-3	-7	-11	17	5
15	Cc1c(C(=O)N2CCCCC2)c(S(=O)(=O)NCCc2ccc(Cl)cc2)c(C)n1C
 : 9	0.0	9	-2	-1	-2	1	-2
16	FC(F)(F)c1cc(-c2ccco2)nc2ncnn12
 : 5	1.2	-5	-5	-3	4	1	-19
17	Cc1ccc(-c2cc(C(F)F)nc(N3CCOCC3)n2)cc1
 : 9	0.1	3	0	9	204	-15	2
18	CCC(=O)N1CCc2cc(S(=O)(=O)NCCC(=O)N3CCN(c4cccc(C)c4)C(C)C3)ccc21 (stereo unspecified)
 : 3	-2.4	-4	-1	1	10	3	-1
19	O=C(CCN1CCN(c2ccccc2)CC1)c1ccc(Cl)cc1
 : -20	1.0	-3	6	6	12	3	-5
20	CC(C)CCN1CCN=C1N(C)C
 : -13	-0.8	7	4	-2	-1	1	3

Values in list order from above.
Nos. 1 to 11 in SUMO Mot1 rescue, in turn: nt, 3, 295, -8, -26, -7, 266, -1, -13, -6, -18

Next part.
Values run as follows: HTR5A inv ctr	CDK5 inh	PKA-R2B act	HTR5A ag	PKA-R1A act	SUMO Mot1 rescue	DAGLB inh	Tat transport
21	CSc1ccc(S(=O)(=O)N2CCC(C(=O)Nc3ccc(NC(C)=O)cc3)CC2)cc1
 : 3	0.0	-5	-1	4	1	-5	-6
22	CCc1nc2ccc(C(=O)N3CCN(c4cc(C)ccc4C)CC3)cc2nc1CC
 : -18	-0.9	-3	5	-9	0	-11	17
23	Cc1ccc(CC2CC(=O)N(c3ncccn3)C2=O)cc1 (stereo unspecified)
 : -4	0.3	-4	1	1	11	0	-4
24	O=S(=O)(Nc1ccc(S(=O)(=O)N2CCCCC2)cc1)c1cccs1
 : 29	-3.0	-13	-1	-5	237	6	3
25	O=C(Nc1nc2ccc(Cl)cc2s1)C1CCCO1 (stereo unspecified)
 : -3	-1.6	5	1	-7	8	1	-7
26	COC(=O)c1cc(CSc2nc3ccc(C)cc3[nH]2)oc1C
 : 4	1.3	-8	-1	-8	nt	-3	5
27	Cc1ccc(S(=O)(=O)N(c2nc(NC(C)C)nc(NC(C)C)n2)n2cnnc2)cc1
 : -6	-2.4	3	1	-6	-11	1	2
28	Cc1ccc(-c2nc3[nH]c(=O)cc(NC(=O)C(C)C)n3n2)cc1
 : -10	-0.2	-15	4	-2	108	1	4
29	Cc1cc(Cl)ccc1C(=O)C1CCCN(C(=O)c2cscn2)C1 (stereo unspecified)
 : 18	0.7	-14	-2	2	44	-1	0
30	O=C(c1ccc(Br)cc1)c1cc(-c2ccccn2)c(N2CCOCC2)s1
 : 13	1.4	-1	-5	2	24	-4	-4
31	Cc1cccc(C(=O)OC2CCN(C)CC2)c1
 : 4	0.8	0	5	-3	-12	1	-11
32	CCc1ccc(N(CC(=O)NC(C)C)C(=O)CCC(=O)Nc2ccccn2)cc1
 : 8	-1.5	-7	-2	2	8	0	-4
33	COc1ccc(CCN(C)C(=O)c2c(C)nn(CC(C)C)c2Cl)cc1OC
 : 15	-0.2	-7	1	7	-7	1	4
34	Cc1ccccc1NC(=S)N(CCCN1CCOCC1)Cc1cccnc1
 : -3	-0.5	-16	1	-15	1	0	2
35	C/C(=N\NC(=O)CCn1nc(C)cc1C)C(C)(C)C
 : -17	0.6	2	4	-11	12	-2	6
36	COC(=O)C1=C(C)N(C(C)c2ccccc2)C(=O)C1 (stereo unspecified)
 : -2	-0.7	7	-1	-2	239	0	-2
37	CC(C(=O)N1CCc2ccccc2C1)N1C(=O)c2ccccc2C1=O (stereo unspecified)
 : -9	1.6	-8	4	2	-8	2	-1
38	COc1ccc(NC(=S)Nc2ccccc2)cn1
 : -9	0.3	2	10	-6	-1	-1	-14
39	Cc1nc(NS(=O)(=O)c2ccccc2)sc1NC(=O)OC(C)C
 : -1	-2.0	-8	-5	8	5	3	-2
40	CCOC(=O)CN1CC23C=CC(O2)C(C(=O)NC2CCCCC2)C3C1=O (stereo unspecified)
 : -1	1.3	3	-1	3	152	0	4

Four entries from above, screen by screen:
34	Cc1ccccc1NC(=S)N(CCCN1CCOCC1)Cc1cccnc1
35	C/C(=N\NC(=O)CCn1nc(C)cc1C)C(C)(C)C
36	COC(=O)C1=C(C)N(C(C)c2ccccc2)C(=O)C1 (stereo unspecified)
37	CC(C(=O)N1CCc2ccccc2C1)N1C(=O)c2ccccc2C1=O (stereo unspecified)
entry no.	34	35	36	37
HTR5A inv ctr	-3	-17	-2	-9
CDK5 inh	-0.5	0.6	-0.7	1.6
PKA-R2B act	-16	2	7	-8
HTR5A ag	1	4	-1	4
PKA-R1A act	-15	-11	-2	2
SUMO Mot1 rescue	1	12	239	-8
DAGLB inh	0	-2	0	2
Tat transport	2	6	-2	-1

More entries:
Values run as follows: HTR5A inv ctr	CDK5 inh	PKA-R2B act	HTR5A ag	PKA-R1A act	SUMO Mot1 rescue	DAGLB inh	Tat transport
41	CN1CCN(C(=S)c2cn(Cc3ccccc3F)c3ccccc23)CC1
 : 8	-1.3	4	-3	5	nt	1	5
42	O=C(COC(=O)CCc1ccccc1)Nc1ccc(F)cc1Cl
 : 4	0.8	3	-2	-22	5	-7	3
43	O=C(NC1=NCCS1)c1cc(-c2ccc(-c3ccccc3)cc2)nc2ccccc12
 : -6	-0.4	-1	2	8	7	-5	-5
44	CCOC(=O)c1c(C)[nH]c(C)c1S(=O)(=O)NCC1CCN(Cc2ccccc2OC)CC1
 : -18	nt	-5	0	6	-8	-1	-6
45	COc1cc(NS(C)(=O)=O)c(OC)cc1NC(=O)c1cccc(F)c1
 : 15	0.7	-8	1	-2	8	-1	2
46	O=C(N/C(=C/c1ccc(Cl)cc1)C(=O)N1CCOCC1)c1ccccc1
 : 6	-1.7	-5	3	-10	172	-1	5
47	COc1ccc([C@H]2CC(=O)C=C(/C=C/c3ccccc3)C2)cc1
 : -13	0.3	3	3	-11	-1	-3	-1
48	C/C(N)=C(/C#N)C(=O)COC(=O)CNC(=O)c1ccc(Cl)cc1Cl
 : -2	1.6	6	1	-15	-8	0	-4
49	CC(C)COC(=O)Nc1nnc(SCCOc2ccccc2)s1
 : -17	-1.0	3	-8	-10	-4	1	-3
50	O=C1CSc2cc(Cl)ccc2N1
 : 2	1.4	-6	-1	2	nt	3	-10
51	O=C(CCN1C(=O)c2ccccc2C1=O)N1CCN(C2c3ccccc3-c3ccccc32)CC1
 : 4	-0.4	-6	5	-4	-17	6	6
52	CCCCn1c(N)c(N(CC(C)C)C(=O)c2ccc(S(=O)(=O)N3CCCCC3)cc2)c(=O)[nH]c1=O
 : 3	1.2	-10	-4	-1	-5	1	12
53	O=C(N/N=C/c1ccc(O)c(O)c1)c1ccc(CSc2cccc3cccnc23)cc1
 : -2	1.5	1	-1	-3	37	4	-2
54	Cc1cnc(CN(C)C(=O)c2ccc3oc(Cc4ccccc4)nc3c2)[nH]1
 : -12	-4.9	7	3	-1	1	-2	-6
55	O=C(COc1ccccc1[N+](=O)[O-])Nc1ccc(Br)cc1
 : -7	-0.6	1	3	-3	9	-6	0
56	O=C(C1CCN(S(=O)(=O)c2ccccc2F)CC1)N1CCN(Cc2ccc3c(c2)OCO3)CC1
 : -25	-0.9	-2	7	-6	-15	-2	-5
57	CCn1c2ccccc2c2cc(NC(=O)C(C)C)ccc21
 : -29	-2.0	-1	5	-8	8	0	-6
58	O=C(CSc1n[nH]c(-c2cccnc2)n1)Nc1ccccc1C(F)(F)F
 : -6	0.6	-8	1	6	77	0	2
59	CC1(C)C([N+](=O)[O-])C(c2ccccc2O)NC(c2ccccc2O)C1[N+](=O)[O-] (stereo unspecified)
 : 3	-1.0	-13	-1	-1	137	-2	-3
60	Cn1c(CCN2CCN(c3ccccc3)CC2)nc2cc(NC(=O)c3ccco3)ccc21
 : -5	0.1	3	-1	-1	-3	0	-2
61	Cc1ccccc1CNc1ccc(C(CC(N)=O)NC(=O)c2ccccc2)cc1[N+](=O)[O-] (stereo unspecified)
 : 10	-0.9	-11	0	-10	-7	20	-6
62	O=C(NCCCn1ccnc1)c1cc2c(ccc3ccccc32)o1
 : nt	nt	nt	nt	nt	1	nt	nt
63	CCC(C)(C)NC(=O)CC(c1ccc(OC)cc1)n1cccc1 (stereo unspecified)
 : -8	-1.0	1	-4	-9	21	0	-1
64	Cc1cc(C)nc(N/N=C/C2=C(N3CCOCC3)C(=C/c3ccccc3)/CC2)n1
 : 6	2.8	0	-2	1	6	6	4
65	Cc1ccc(-c2onc3ccc(C(=O)O)cc23)cc1
 : 9	0.4	-1	-2	-3	81	0	1
66	O=C(CNC1CCCC1)Nc1ccc(N2CCCCCC2)cc1
 : -7	-0.1	4	10	-2	-13	-7	1
67	CC(C)(C)Cc1nnc(NS(=O)(=O)c2ccc([N+](=O)[O-])cc2)s1
 : -6	-0.3	-2	2	-1	-1	7	-4
68	CC(=O)c1ccc(NC(=O)NNS(=O)(=O)c2ccc([N+](=O)[O-])cc2)cc1
 : 1	2.7	-5	2	-3	-13	2	9
69	O=C(CCC1CCCN(C(=O)c2cccc(F)c2)C1)N1CCN(c2ccccn2)CC1 (stereo unspecified)
 : -6	0.2	1	3	4	1	2	-12
70	CCCc1c(O)nc(SC2CC(=O)N(c3ccc(C)c(Cl)c3)C2=O)[nH]c1=O (stereo unspecified)
 : nt	nt	nt	nt	nt	17	nt	nt
71	COc1ccccc1C(=O)Nc1ccc2ccccc2c1
 : -26	1.1	4	4	-2	1	-7	0

An excerpt; rates above refer to the full screens.
